# From PubChem BioAssay
# RE007 growth inh: qHTS Assay for Inhibitors of the HIV-1 protein Vpr. 360,000 compounds, 0.21% hits. AID 651644, 2012. Potency, µM (doses to about 92.2 µM), without a hit: at the highest dose activity change, negative = less growth. S. pombe RE007 Vpr strain, BacTiter-Glo ATP luminescence, 24 h; control for the full effect not named in the record; active = well fitted falling curve with a large enough effect; inconclusive = small, poorly fitted or top-dose-only effect; inactive = no such curve, though single readings can be large or run the other way;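 also: % is scaled to controls: 0 for no effect and ±100 for the full control effect; nearly all actives have a fitted effect of over 50% in size; the assay follows cell death caused by Vpr and the record does not say whether a fall means rescue or toxicity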
#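 Fission yeast RE007 carrying one integrated HIV-1 vpr copy, seeded at OD 0.01 in PMG+AL medium with 23 nL pinned compound. Grown 24 h at 30 degrees; viability read by BacTiter-Glo luminescence after 5 min.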
# Marburg entry inh: qHTS for inhibitors of binding or entry into cells for Marburg Virus; Marburg virus pseudotyped entry inhibition, cell reporter; control for the full effect not named in the record; about a third of the inactives were read at about 46 µM; Potency, µM (series often up to 37.8 µM), for inactives: at the highest dose activity change, negative = inhibition, hits mostly inhibitors; 300,000 compounds, 1.8% hits; AID 540276, 2011; active = well fitted inhibition curve with a large enough effect; inconclusive = small, poorly fitted or top-dose-only effect, or effect the other way; inactive = flat fitted curve, though single readings scatter; tested in HEK293 cells; about a fifth of its hits are not listed in these tables; also: % is scaled to controls: 0 for no effect and ±100 for the full control effect; luciferase read-out
# LASV entry inh: qHTS for Inhibitors of binding or entry into cells for Lassa Virus; Lassa virus pseudotype entry inhibition, cell reporter; control for the full effect not named in the record; Potency, µM (titrated, usually from 37.9 µM), inactives show at the highest dose activity change, negative = inhibition, most hits filed as inhibitors; 300,000 compounds, 1.2% hits; AID 540256, 2011; active means well fitted inhibition curve with a large enough effect; inconclusive means small, poorly fitted or top-dose-only effect, or effect the other way; inactive means flat fitted curve, though single readings scatter; tested in HEK293 cells; also: % is scaled to controls: 0 for no effect and ±100 for the full control effect; nearly all actives have a fitted effect of over 50% in size; luciferase read-out
# Cruzain noTriton: qHTS Assay for Promiscuous and Specific Inhibitors of Cruzain (without detergent) | Cruzipain (Trypanosoma cruzi), P25779 | Potency, µM, for inactives: max response, negative = inhibition, most hits filed as inhibitors | 200,000 compounds, 2.3% hits | AID 1476, 2009 | purified cruzain, Z-FR-AMC fluorescence, no detergent;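 also: plate controls were enzyme without inhibitor for no effect and buffer without enzyme for full effect; nearly all actives have a fitted effect of over 40% in size; top concentration of the series not given in the record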
# Target sequence (P25779 123-467 limits assumed): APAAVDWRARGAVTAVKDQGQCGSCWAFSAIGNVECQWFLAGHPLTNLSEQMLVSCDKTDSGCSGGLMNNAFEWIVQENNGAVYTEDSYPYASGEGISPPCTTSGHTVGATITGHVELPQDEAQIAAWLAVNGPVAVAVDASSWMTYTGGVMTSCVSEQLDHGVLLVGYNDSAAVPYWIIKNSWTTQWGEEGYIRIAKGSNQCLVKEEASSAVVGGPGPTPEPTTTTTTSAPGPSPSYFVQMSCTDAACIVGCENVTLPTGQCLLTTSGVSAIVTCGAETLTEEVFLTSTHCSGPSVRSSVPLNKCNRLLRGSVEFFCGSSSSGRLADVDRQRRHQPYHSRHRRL
#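 Detergent-free condition (0.00005% Triton X-100) in acetate buffer pH 5.5 with DTT. 1.5 nM enzyme and compound were pre-mixed 15 min, then 2 uM Z-FR-AMC substrate added; reaction progress from fluorescence change between first and third reads (60 s).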
# Cruzain inh Det: qHTS Assay for Promiscuous and Specific Inhibitors of Cruzain (with detergent). Potency, µM, for the others: max response, negative = inhibition, actives largely listed as inhibitors. purified cruzain, Z-FR-AMC fluorescence, 0.01% Triton. 200,000 compounds, 0.43% hits. Cruzipain (Trypanosoma cruzi), P25779;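 also: plate controls were neutral wells for no effect and buffer without enzyme for full effect; nearly all actives have a fitted effect of over 40% in size; top concentration of the series not given in the record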
#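 Sodium acetate buffer (100 mM, pH 5.5) containing 5 mM DTT and 0.01% Triton X-100 hosted 1.5 nM cruzain and test compound for 15 min at room temperature. Cleavage of 2 uM Z-FR-AMC was then tracked by fluorescence.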
# NS1 inh: qHTS Assay for Inhibitors of Influenza NS1 Protein Function; 270,000 compounds, 0.4% hits; AID 2326, 2010; Potency, µM (series often up to 46.1 µM), for the others: top-dose activity, positive = more growth; S. cerevisiae slowed by influenza A NS1, growth recovery by OD600; active means well fitted rising curve with a large enough effect; inconclusive means small, poorly fitted or top-dose-only effect; inactive means no such curve, though single readings can be large or run the other way; also: nearly all actives have a fitted effect of over 50% in size
#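 S. cerevisiae expressing influenza A NS1, grown in glucose, washed, then diluted 1:100 into pH 6.0 -URA galactose medium with 23 nl compound. Growth recovery read as OD600; NS1-free strain serves as control.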
# 2A StopGo: High Throughput Screening for Foot and Mouth Disease Virus Antivirals; human cells with a luciferase reporter of 2A StopGo recoding; control for the full effect not named in the record; Potency, µM (titrated, usually from 57.9 µM), inactives show at the top dose signal change, negative = less light; 410,000 compounds, 1.2% hits; active = well fitted falling curve with a large enough effect; inconclusive = small, poorly fitted or top-dose-only effect; inactive = no such curve, though single readings can be large or run the other way; tested in HEK293T cells; also: % is scaled to controls: 0 for no effect and ±100 for the full control effect; nearly all actives have a fitted effect of over 45% in size; luciferase light after 4 h
# SARS PLpro yeast: qHTS of Yeast-based Assay for SARS-CoV PLP; S. cerevisiae expressing SARS-CoV PLpro, growth rescue; control for the full effect not named in the record; 330,000 compounds, 0.19% hits; AID 485353, 2010; Potency, µM (titrated, usually from 32.9 µM), without a hit: at the highest dose activity, positive = growth rescue; active means well fitted rising curve with a large enough effect; inconclusive means small, poorly fitted or top-dose-only effect; inactive means no such curve, though single readings can be large or run the other way; also: 0% is about no effect; nearly all actives have a fitted effect of over 55% in size; growth read by luminescence after 48 h
# * hit, by the source's call; ? = inconclusive; . = no result given; & = joins results of further samples; [ ] = another dose, or the depositor's remark. Unless noted, calls follow the shape of the dose curve; as a rule, active = well fitted curve in the direction sought with a large enough effect; inconclusive = small, poorly fitted or top-dose-only effect, or another doubt; inactive = no such curve, though single readings can be large; an effect the other way counts as inactive or inconclusive. Potency is read from the fitted curve at half-maximal effect.
SMILES,RE007 growth inh,Marburg entry inh,LASV entry inh,Cruzain noTriton,Cruzain inh Det,NS1 inh,2A StopGo,SARS PLpro yeast
COc1ccc(C2C(C(=O)Nc3ccccc3)=C(C)N=C3SCC(=O)N32)cc1 (stereo unspecified),-2%,1%[46.1 µM],?,-7%,-2.8%,11%,-21%,1%
Cc1cc(C)c(S(=O)(=O)N2CC=C(c3ccccc3)CC2)c(C)c1,13%,-20%,4%[46.1 µM],.,.,.,?,-30%
CC(C)/C=C1\CCc2c([nH]c3ccccc23)C1=O,-25%,6%[46.1 µM],0%[46.1 µM],.,.,-8%,25%,-2%
COc1ccccc1CCNS(=O)(=O)c1cn(C)nc1C,4%,5%[46.1 µM],5%[46.1 µM],.,.,0%,1%,-3%
COCCCNc1nc(CC(C)C)nc2c1nnn2Cc1ccccc1,-20%,.,.,.,.,-6%,-2%,4%
Cc1nc2nc3c(c(=O)n2[nH]1)CCC3,-8%,1%,2%,-2%,4.6%,4%,13%,-1%
COc1ccc(-n2c(O)c(C(C)=Nc3ccc4c(c3)CCC4)c(=O)[nH]c2=O)cc1,0%,.,.,.,.,5%,-7%,1%
Cc1ccc(Nc2nnc(-c3ccccc3N)o2)cc1C,4%,?,9%[46.1 µM],.,.,-29%,19%,0%
CN(C)c1cc[n+](Cc2ccccc2)cc1,-22%,?,?,0%,4.2%,-2%,?,-3%
COc1ccc(S(=O)(=O)n2nc(C)c(S(=O)(=O)N3CCOCC3)c2C)cc1,9%,.,.,.,.,6%,4%,3%
CC1CN(c2cc(=O)n(-c3ccccc3)c(=O)[nH]2)CC(C)O1 (stereo unspecified),12%,.,.,-5%,0.5%,5%,-18%,15%
Cc1ccc(S(=O)(=O)Nc2cc(-c3ccc(Cl)cc3)nn2C)cc1,0%,.,.,.,.,-1%,-10%,-1%
Cc1ccc2cc(C)c3nnc(SCc4ccc(C(=O)O)cc4)n3c2c1C,-13%,24%[46.1 µM],1%,.,.,5%,-8%,-1%
Cc1nc2nc[nH]n2c(=O)c1NC(=O)CC12CC3CC(CC(C3)C1)C2,4%&13%,-6%&4%,5%&18%,2%&1%,-2.6%&1.6%,-70%&-3%,-12%,-2%&10%
Cc1nc(CN2CCN(C(=O)c3ccc(C(C)(C)C)cc3)CC2)cs1,13%,.,.,5%,3.6%,3%,-25%,9%
O=C(NC(c1ccccc1)c1ccccc1)C1CCCN(S(=O)(=O)c2cnc[nH]2)C1 (stereo unspecified),0%,-6%,.,1%,0.2%,-43%,-20%,-2%
O=C(NC1CCCCC1)C1CC(O)CN1C(=O)OCc1ccccc1 (stereo unspecified),1%,11%,-5%,5%,4.2%,-6%,-11%,3%
CCN(CC)CC(O)Cn1c(C)c(-c2ccccc2)c2cc([N+](=O)[O-])ccc21 (stereo unspecified),-1%,?,?,.,.,-3%,-12%,0%
CCOC(=O)c1cn(CC#N)c2cc(F)c(F)cc2c1=O,-26%,-16%[46.1 µM],1%,.,.,6%,-3%,-2%
Cc1ccn2c(-c3csc(NCc4ccccc4)n3)c(C)nc2c1,6%,?,?,6%,-5.4%,29%,16µM*,19%
O=C(NNc1ccccc1Br)C(=O)n1ccc2ccccc21,108%,-2%,-5%,-6%,-7.0%,-4%,-27%,-5%
Cc1nc(C)c(-c2csc(Nc3ccc(O)cc3C)n2)s1,-9%,5%[46.1 µM],-14%[46.1 µM],.,.,15%,16%,3%
O=C(NCC(c1ccco1)N1CCN(c2ccccc2)CC1)C(=O)NC1CCCCC1 (stereo unspecified),5%,-1%,-24%,.,.,.,-12%,.
O=C(Nc1cccc(-n2cnnn2)c1)c1cccnc1,-4%,.,.,.,.,1%,-11%,5%
COCC(=O)N1CCN(c2cccc(Cl)c2)CC1,19%,-29%[46.1 µM],-8%,.,.,0%,-6%,1%

# (next part)
SMILES,RE007 growth inh,Marburg entry inh,LASV entry inh,Cruzain noTriton,Cruzain inh Det,NS1 inh,2A StopGo,SARS PLpro yeast
COc1ccc(-c2[nH]c(-c3ccc4c(c3)OCO4)nc2-c2ccccc2)cc1,-1%,-87%,?,-1%,9.5%,-192%,?,-31%
CCOC(=O)c1c(C)c(C)n(Cc2ccc(OC)c(OC)c2)c1C,14%,?,-23%,?,-7.2%,-6%,?,-3%
CC1Cc2nc(SCC(=O)Nc3ccc4c(c3)OCCO4)n(C)c(=O)c2S1 (stereo unspecified),12%,-25%,6%,-29%,-3.5%,-35%,.,-10%
CC1C/C(=N/O)C(C)CN1 (stereo unspecified),0%,-9%,21%,-7%,0.4%,-5%,-4%,2%
COc1ccccc1N1CCN(C(=O)CCC(=O)O)CC1,5%,4%[46.1 µM],2%,.,.,2%,2%,0%
COC(=O)CSc1nnc(-c2ccc(OC)cc2OC)o1,-9%,10%,5%,-1%,0.3%,-7%,.,-13%
O=C(N/N=C\C=C\c1ccc(Br)cc1)c1ccc2c(c1)OCO2,-15%,?,5%[46.1 µM],.,.,-3%,-9%,1%
NCC(CC(=O)O)C1CCCCC1 (stereo unspecified),-6%,-17%,-2%,-6%,2.1%,-8%,26%,3%
N#Cc1cc2c(nc1SCC(=O)N1CCCCC1)CCCC2,-9%,30%[46.1 µM],-1%,0%,0.5%,-5%,10%,1%
C[C@H]1CCC[C@]2(C)C[C@H]3OC(=O)C(CN4CCCCCC4)[C@H]3C=C12 (stereo partly specified),-21%,.,.,.,.,12%,22µM*,1%
Cc1cccc2c3nc4ccccc4nc3n(C)c12,16%,?,?,.,.,-6%,10%,-1%
CCOC(=O)C1(Cc2cccc(OC)c2)CCN(Cc2ccccc2)CC1,-23%,?,?,.,.,14%,?,0%
CCN(CC)c1ccc(C2C3CCCCC3(O)CCN2CC(=O)Nc2ccccc2)cc1 (stereo unspecified),15%,-1%,1%,-5%,-3.1%,-16%,16%,-3%
Cc1ccc(C)c(NC(=O)Nc2ccc3c(c2)OCO3)c1,-7%,.,.,.,.,2%,25%,-1%
O=C(CC(c1ccccc1)c1cc(Br)ccc1O)NCCN1CCOCC1 (stereo unspecified),4%,?,-19%,-7%,-2.1%,?,-13%,2%
CCC(C)Sc1nc(O)c(Cc2ccccc2)c(=O)[nH]1 (stereo unspecified),8%,-13%,1%,?,2.3%,4%,-15%,8%
CC(C)Oc1ccc(CC2(CCc3ccncc3)C(=O)NC(=O)NC2=O)cc1,6%,-22%,-4%,.,.,5%,?,-1%
CC(=O)n1cc([C@@H]2C=C(C(=O)NCc3ccccc3)O[C@H](OCCCCO)C2)c2ccccc21,-4%,.,.,.,.,4%,-13%,-1%
Oc1ccc(/C=N/Nc2nc(-c3ccc(Cl)cc3)cc(C(F)(F)F)n2)cc1,4%,11µM*,?,-5%,-15%,10%,25µM*,-7%
O=[N+]([O-])c1ccc(Cl)cc1Sc1cccc2cccnc12,-1%,-1%,-7%,4%,-2.4%,-1%,7%,-2%
Cc1cccc(C(=O)Nc2ccc(C(=O)N/N=C/c3cccnc3)cc2)c1,7%,8%[46.1 µM],2%[46.1 µM],.,.,11%,-9%,-1%
CC(C)(C)N1C(=O)[C@H]2[C@@H](c3ccc(Br)cc3)N3C(=O)N(c4cccc(Br)c4)C(=O)[C@@]3(Cc3ccccc3)[C@H]2C1=O,-4%,.,.,.,.,23%,-17%,-2%
C=CCNC(=S)NNC(=O)C(CCCC)CC(O)COCC(C)C (stereo unspecified),31%,15%[14.2 µM],5%,.,.,2%,3%,1%
CCn1cc(C(=O)NC2CCCCC2)c(=O)c2ccc(C)nc21,17%,-27%,4%,12%,-0.3%,1%,-2%,0%
Cc1ccc(Oc2cc(NC(=O)CCCn3nc(C)c([N+](=O)[O-])c3C)cc([N+](=O)[O-])c2)cc1,-9%,-4%,-28%,-5%,-5.9%,9%,?,4%

# The list goes on.
SMILES,RE007 growth inh,Marburg entry inh,LASV entry inh,Cruzain noTriton,Cruzain inh Det,NS1 inh,2A StopGo,SARS PLpro yeast
S=C(NCC1CCCO1)N1CCN(c2nc(-c3ccccc3)cs2)CC1 (stereo unspecified),4%,?,?,.,.,5%,?,0%
CCC(=O)NC(=S)Nc1ccc(OC)cc1OC,-9%,4%,25%,-7%,-0.9%,0%,45%[activator],0%
CC(=O)c1ccc(NC(=O)CCn2cccn2)cc1,.,.,-15%[46.1 µM],0%,-2.9%,.,13%,.
CC1CN(c2cc(=O)n(Cc3ccc(F)cc3)c(=O)[nH]2)CC(C)O1 (stereo unspecified),9%,.,.,-7%,-6.0%,-7%,-10%,5%
O=C(O)c1ccc(N/N=C/c2ccc(C(F)(F)F)cc2)cc1,35µM*,1.6µM*,1.3µM*,.,.,.,?,-4%
Cc1cc(NC(=O)c2c(Cl)cnn2C)no1,-4%,10%,0%,-1%,-1.2%,0%,-4%,-5%
O=C(CSC1=NS(=O)(=O)c2cc(Cl)ccc2N1)c1ccc(Cl)cc1,17%,1%[46.1 µM],?,.,.,.,9%,-1%
CCCOC(=O)c1ccc(NC(=O)C2C3C=CC(O3)C2C(=O)O)cc1 (stereo unspecified),13µM*,16%,5%,4%,3.0%,-26%,44%[activator],-16%
CC(=O)c1ccc(NC(=O)C(C)N(C)CC(=O)Nc2cccc(F)c2)cc1 (stereo unspecified),18%,1%,2%,.,.,.,-2%,-4%
CCOC(=O)C1=C(C)Nc2nc(SC)nn2C1c1ccc(C(=O)OC)cc1 (stereo unspecified),15%,-11%,?,-6%,4.9%,16%,-19%,2%
Cc1ccc(N(Cc2cc3cc(C)ccc3[nH]c2=O)C(=O)c2cccs2)cc1,-14%,-3%,3%,23%,-8.6%,?,-12%,?
O=C(O)C(c1ccccc1)C(O)C1CC=CCC1 (stereo unspecified),-4%,8%,20%,.,.,.,-3%,.
CCn1c(SCC#N)nc2cc(S(=O)(=O)N3CCOCC3)ccc21,7%,.,.,.,.,7%,-9%,5%
CC1CCc2c(sc3nnn(CC(=O)Nc4c(C(C)C)cccc4C(C)C)c(=O)c23)C1 (stereo unspecified),.,1%[46.1 µM],-11%[46.1 µM],-2%,-2.1%,.,-14%,.
